Vaccinia inh = blocks a specific stage of Vaccinia orthopoxvirus infection | Vaccinia-infected cells, mCherry/Venus stage reporter fluorescence; active compounds read low; some inactives read as strong as hits | activity change (mCherry), % (test concentration not listed) | hit rate 0.01% among 89,000 | AID 1053133;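 active means mCherry past -33% and 40 or more points under the early reporter, replicates agreeing; inconclusive means past -33% without that gap or agreement; tested in A549 cells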;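 further: scaled between vehicle wells and reference inhibitor wells; 23 nL library stock went into each well; one replicate is shown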
Vaccinia inh Venus = further read-out of Vaccinia inh, marked with its call; activity change (Venus), %; measured here: Venus reporter, other viral stage;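 negative = less Venus signal; first of two replicates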
* hit, by the source's call; ? = inconclusive; · = no result given. An excerpt; rates above refer to the full screens.

Every second line gives: Vaccinia inh, Vaccinia inh Venus
- C[C@@H]1CN([C@@H](C)CO)S(=O)(=O)c2ccc(-c3ccncc3)cc2O[C@@H]1CN(C)Cc1cncnc1
→ 16, 0
- C[C@@H]1CN([C@H](C)CO)C(=O)c2cc(NS(=O)(=O)c3ccc(F)cc3)ccc2O[C@@H](C)CCCCO[C@@H]1CN(C)C(=O)CCCN(C)C
→ 17, 1
- C[C@@H]1CCCCO[C@H](CN(C)S(=O)(=O)c2ccccc2)[C@H](C)CN([C@@H](C)CO)C(=O)c2cc(NC(=O)Nc3ccccc3)ccc2O1
→ 7, -5
- COc1ccccc1-c1ccc([C@@H]2[C@H](CO)N(C(=O)C3CC3)C23CN(C(C)=O)C3)cc1
→ 2, 6
- CO[C@@H]1CN(C)C(=O)c2ccc(NS(C)(=O)=O)cc2OC[C@H](C)N(C(=O)C2CCC2)C[C@H]1C
→ 3, 5
- COc1ccc2c3c(n(C)c2c1)[C@@H](CO)N(C(=O)CC1CC1)CC31CN(C(=O)NC(C)C)C1
→ -2, -13
- C[C@H]1CN([C@@H](C)CO)C(=O)c2cccc(NC(=O)C3CCCCC3)c2O[C@H]1CN(C)Cc1ccc(C(=O)O)cc1
→ 11, 11
- COc1ccc(C#Cc2cnc3c(c2)C(=O)N([C@@H](C)CO)C[C@@H](C)[C@@H](CN(C)CC2CCCC2)O3)cc1
→ -26, -23
- C[C@@H]1CN([C@@H](C)CO)C(=O)c2cc(NS(=O)(=O)c3cccs3)ccc2O[C@@H](C)CCCCO[C@H]1CN(C)Cc1ccc(C(=O)O)cc1
→ 14, 1
- Cc1ccc(S(=O)(=O)Nc2ccc3c(c2)C(=O)N([C@H](C)CO)C[C@@H](C)[C@@H](CN(C)S(C)(=O)=O)OCCCC[C@@H](C)O3)cc1
→ 1, -4
- C[C@@H]1CCCCO[C@@H](CN(C)S(=O)(=O)c2ccccc2)[C@@H](C)CN([C@H](C)CO)C(=O)c2cc(NC(=O)NC3CCCCC3)ccc2O1
→ 9, 3
- C[C@H]1CN([C@@H](C)CO)S(=O)(=O)c2ccc(-c3cncnc3)cc2O[C@H]1CN(C)C(=O)CC1CC1
→ 13, 2
- CO[C@H]1CN(C)C(=O)c2ccc(NC(=O)c3ccccc3F)cc2OC[C@H](C)NC[C@H]1C
→ 4, -2
- CC(C)CC#Cc1cnc2c(c1)C(=O)N([C@@H](C)CO)C[C@@H](C)[C@H](CN(C)S(C)(=O)=O)O2
→ 12, 1
- C[C@@H]1CCCCO[C@@H](CN(C)S(=O)(=O)c2ccccc2)[C@H](C)CN([C@H](C)CO)C(=O)c2cc(NS(C)(=O)=O)ccc2O1
→ -11, -13
- COc1ccccc1S(=O)(=O)N(C)C[C@@H]1OCc2ccccc2-c2c(n(C)c3ccccc23)C(=O)N([C@@H](C)CO)C[C@H]1C
→ ?, ·
- CCCC#Cc1ccc([C@H]2[C@@H](CO)N(C(=O)C3CCCC3)[C@H]2C#N)cc1
→ -14, -7
- C[C@@H]1CN([C@@H](C)CO)C(=O)c2cc(C#CC(C)(C)O)cnc2O[C@H]1CN(C)C(=O)CC1CC1
→ 16, 11
- C[C@@H]1CCCCO[C@@H](CN(C)Cc2ccncc2)[C@H](C)CN([C@H](C)CO)C(=O)c2cc(NC(=O)Nc3ccc(C(F)(F)F)cc3)ccc2O1
→ ?, ·
- CNC[C@@H]1OCCCC[C@H](C)Oc2ccc(NC(=O)CCC(F)(F)F)cc2C(=O)N([C@@H](C)CO)C[C@H]1C
→ 17, 21
- O=C(C[C@@H]1CC[C@H]2[C@@H](COC[C@@H](O)CN2CC2CCCCC2)O1)NCc1ccc(F)cc1
→ -13, -3
- CC(C)NC(=O)N(C)C[C@H]1Oc2ncc(-c3ccc(C(=O)N(C)C)cc3)cc2C(=O)N([C@@H](C)CO)C[C@@H]1C
→ 21, 10
- C[C@H]1CN([C@@H](C)CO)C(=O)Cc2cc(NC(=O)Nc3ccc(F)cc3)ccc2O[C@@H]1CN(C)Cc1ccccc1
→ -29, -17
- Cc1noc(C)c1NC(=O)Nc1ccc2c(c1)C(=O)N([C@H](C)CO)C[C@H](C)[C@H](CN(C)C(=O)Nc1c(C)noc1C)OCCCC[C@@H](C)O2
→ 23, 2
- O=C1CNC[C@@H]2[C@H](c3ccc(C#CC4CCCC4)cc3)[C@@H](CO)N12
→ 5, -1
- N#C[C@@H]1[C@H](c2ccccc2-c2ccccc2F)[C@@H](CO)N1C(=O)C1CCOCC1
→ -30, -22
- CN1C(=O)c2cc(NS(=O)(=O)CC(F)(F)F)ccc2OC[C@H]2O[C@@H](CC(=O)NCC3CCCCC3)CC[C@@H]21
→ -1, 7
- CCCNC(=O)N(C)C[C@@H]1Oc2ncc(-c3ccc(OC)cc3)cc2C(=O)N([C@@H](C)CO)C[C@@H]1C
→ 4, -2
- CCC(=O)Nc1ccc2c(c1)OC[C@@H](C)N(Cc1ccncc1)C[C@@H](C)[C@H](OC)CN(C)C2=O
→ 8, 6
- CCC(=O)Nc1ccc2c(c1)OC[C@@H](C)N(C(=O)CN1CCOCC1)C[C@@H](C)[C@H](OC)CN(C)C2=O
→ 2, 3

Single records, from the list above.
Record of `O=C(C[C@@H]1CC[C@H]2[C@@H](COC[C@@H](O)CN2CC2CCCCC2)O1)NCc1ccc(F)cc1` = Vaccinia inh: -13; Vaccinia inh Venus: -3
Record of `CCC(=O)Nc1ccc2c(c1)OC[C@@H](C)N(C(=O)CN1CCOCC1)C[C@@H](C)[C@H](OC)CN(C)C2=O` = Vaccinia inh: 2; Vaccinia inh Venus: 3

New compounds follow.
Every second line gives: Vaccinia inh, Vaccinia inh Venus
- CCCC(=O)Nc1ccc2c(c1)OC[C@H](C)N(Cc1cccc(F)c1)C[C@H](C)[C@H](OC)CN(C)C2=O
→ -9, -5
- C[C@H](CO)N1C[C@H](C)[C@H](CN(C)S(=O)(=O)c2ccc(C#N)cc2)Oc2ncc(C#CCN(C)C)cc2C1=O
→ 28, 6
- COc1ccc2c3c(n(C)c2c1)[C@H](CO)N(C(=O)CN(C)C)CC31CN(S(C)(=O)=O)C1
→ 25, 5
- CCN(C[C@@H]1[C@@H](c2ccccc2)[C@@H](CO)N1C(C)=O)C(=O)c1ccccn1
→ 15, 17
- Cc1ccc(OC(=O)N(C)C[C@@H]2OCc3ccccc3-c3ccccc3C(=O)N([C@H](C)CO)C[C@@H]2C)cc1
→ -8, -9
- O=C(C[C@H]1CC[C@H](NC(=O)C2CCOCC2)[C@H](CO)O1)NCC1CCCCC1
→ 4, 11
- COc1ccc(NC(=O)Nc2ccc3c(c2)C(=O)N([C@@H](C)CO)C[C@H](C)[C@@H](CN(C)S(=O)(=O)c2ccc(Cl)cc2)OCCCC[C@H](C)O3)cc1
→ -1, -7
- CO[C@H]1CN(C)C(=O)c2cc(NC(=O)Nc3ccccc3F)ccc2OC[C@H](C)N(Cc2ccccc2C(=O)O)C[C@H]1C
→ 16, 6
- COc1ccc(S(=O)(=O)Nc2ccc3c(c2)C(=O)N([C@H](C)CO)C[C@@H](C)[C@@H](CN(C)S(=O)(=O)c2c(C)noc2C)O3)cc1
→ 4, 3
- O=C(Nc1ccccc1)N[C@H]1CC[C@H](CCNC(=O)c2ccccc2F)O[C@H]1CO
→ 0, -3
- C[C@@H]1CN([C@@H](C)CO)C(=O)Cc2cc(NC(=O)Nc3ccc(C(F)(F)F)cc3)ccc2O[C@@H]1CN(C)Cc1ccccc1
→ ?, ·
- C[C@H]1CN([C@@H](C)CO)C(=O)Cc2cc(NC(=O)Cc3ccccc3)ccc2O[C@H]1CN(C)S(C)(=O)=O
→ 11, 15
- COc1ccc(NC(=O)Nc2ccc3c(c2)C(=O)N([C@H](C)CO)C[C@H](C)[C@H](CN(C)S(=O)(=O)c2ccc(Cl)cc2)OCCCC[C@H](C)O3)cc1
→ 4, -1
- Cc1cccc(-c2ccc([C@H]3[C@H]4CN(C(=O)c5cccnc5)CC(=O)N4[C@H]3CO)cc2)c1
→ -9, -8
- CCCN1[C@@H]2c3ccc(/C=C/c4ccccc4)c(=O)n3C[C@@H]2[C@@H](CO)[C@@H]1C(=O)NCC
→ -14, -8
- O=C(c1cnccn1)N1CC(=O)N2[C@H](CO)[C@@H](c3ccc(C#CC4CCCC4)cc3)[C@H]2C1
→ -15, -6
- CCCC#Cc1ccc([C@@H]2[C@@H](CO)N3CCCCN(S(=O)(=O)Cc4ccccc4)C[C@@H]23)cc1
→ ?, ·
- C[C@H]1CN([C@@H](C)CO)C(=O)c2cc(NS(=O)(=O)c3ccc(F)cc3)ccc2O[C@@H]1CN(C)Cc1ccccc1
→ 14, 7
- CCC(=O)N(C)C[C@@H]1Oc2ncc(-c3ccccc3F)cc2C(=O)N([C@H](C)CO)C[C@H]1C
→ 17, 14
- C[C@H]1CN([C@@H](C)CO)C(=O)c2cccc(NS(=O)(=O)c3cccs3)c2O[C@H]1CN(C)S(=O)(=O)c1ccc(Cl)cc1
→ -10, -6
- COc1ccc(CNC(=O)C[C@@H]2C[C@H]3c4cc(NS(C)(=O)=O)ccc4O[C@H]3[C@H](CO)O2)cc1
→ 1, 1
- C/C=C/c1cnc2c(c1)C(=O)N([C@@H](C)CO)C[C@H](C)[C@H](CN(C)C(=O)CN1CCOCC1)O2
→ -1, 6
- C[C@H]1CN([C@@H](C)CO)C(=O)c2cc(NC(=O)CCCCCC(=O)Nc3ccccc3N)ccc2O[C@H]1CN(C)S(=O)(=O)c1ccccc1
→ 4, 8
- O=C(N[C@H]1CC[C@H](CC(=O)N2CCc3ccccc3C2)O[C@@H]1CO)C1CC1
→ 10, 8
- COc1ccc(S(=O)(=O)Nc2ccc3c(c2)C(=O)N([C@@H](C)CO)C[C@@H](C)[C@H](CN(C)Cc2ccncc2)OCCCC[C@@H](C)O3)cc1
→ 24, 0
- CCCN(C)C[C@H]1Oc2ncc(C#CC3CCCCC3)cc2C(=O)N([C@H](C)CO)C[C@@H]1C
→ -29, -26
- CC(=O)N1[C@@H]2c3ccc(-c4cccnc4)c(=O)n3C[C@H]1[C@H](CO)[C@H]2C(=O)NC1Cc2ccccc2C1
→ 7, 7
- COc1cccc(CNC(=O)C[C@@H]2CC[C@@H]3[C@H](COc4ccc(NS(=O)(=O)c5ccccc5F)cc4C(=O)N3C)O2)c1
→ 8, 4
- CCNC(=O)C[C@H]1CC[C@@H]2[C@H](COC[C@H](O)CN2C(=O)C2CCOCC2)O1
→ 7, 8
- C[C@H]1CN([C@@H](C)CO)S(=O)(=O)c2ccc(C#Cc3cccc(F)c3)cc2O[C@H]1CN(C)C(=O)CN1CCOCC1
→ ?, ·
- COc1ccc(NC(=O)Nc2ccc3c(c2)C(=O)N([C@@H](C)CO)C[C@H](C)[C@H](CN(C)Cc2ccncc2)OCCCC[C@H](C)O3)cc1
→ -2, -14
- COc1ccc(CN2[C@@H]3CNc4ccccc4[C@@H]3[C@@H]2CO)cc1
→ -6, -6
- COc1ccc(S(=O)(=O)N(C)C[C@H]2Oc3c(NC(=O)c4nc5ccccc5s4)cccc3C(=O)N([C@@H](C)CO)C[C@@H]2C)cc1
→ 3, -3
- COc1ccc(S(=O)(=O)Nc2ccc3c(c2)CC(=O)N([C@@H](C)CO)C[C@@H](C)[C@@H](CN(C)Cc2ccc(-c4ccccc4)cc2)O3)cc1
→ ?, ·
- C[C@@H]1CN([C@H](C)CO)C(=O)Cc2cc(NC(=O)Nc3cccc4ccccc34)ccc2O[C@@H]1CN(C)Cc1ccc(Oc2ccccc2)cc1
→ -5, -4
- C[C@H]1CN([C@@H](C)CO)C(=O)c2cccc(NC(=O)Nc3ccc(F)cc3)c2O[C@H]1CN(C)C(=O)NC1CCCCC1
→ ?, ·
- Cc1noc(C)c1S(=O)(=O)Nc1ccc2c(c1)C(=O)N([C@@H](C)CO)C[C@H](C)[C@H](CN(C)Cc1ccc3c(c1)OCO3)OCCCC[C@H](C)O2
→ ?, ·
- C[C@@H]1CN([C@H](C)CO)C(=O)c2cc(N(C)C)ccc2O[C@@H](C)CCCCO[C@@H]1CN(C)C(=O)Nc1cccc2ccccc12
→ -24, -19
- C[C@H](CO)N1C[C@H](C)[C@H](CN(C)C(=O)C2CC2)Oc2ncc(C#Cc3ccccc3F)cc2C1=O
→ 24, 4
- C[C@H]1CN([C@@H](C)CO)C(=O)c2cc(C3=CCCCC3)cnc2O[C@@H]1CN(C)C(=O)c1ccncc1
→ 7, 2
- C[C@H](CO)N1C[C@H](C)[C@@H](CN(C)C(=O)Nc2ccc(F)cc2)Oc2c(NC(=O)c3nc4ccccc4s3)cccc2C1=O
→ 11, 2
- CN(C)CC(=O)N1[C@H](C#N)[C@H](c2ccccc2-c2ccccc2F)[C@@H]1CO
→ 11, 5
- O=C(C[C@@H]1CC[C@H]2[C@@H](COC[C@H](O)CN2Cc2cc(F)ccc2F)O1)N[C@H]1CCN(Cc2ccccc2)C1
→ -21, -10
- CO[C@@H]1CN(C)C(=O)c2ccc(NC(=O)C3CCCC3)cc2OC[C@@H](C)N(C(=O)c2ccccc2)C[C@H]1C
→ 6, 8
- COC(=O)C[C@@H]1C[C@H]2c3cc(NC(=O)c4cccnc4)ccc3O[C@H]2[C@H](CO)O1
→ 10, 4
- CNC[C@@H]1Oc2cc(C#CC(C)C)ccc2S(=O)(=O)N([C@@H](C)CO)C[C@H]1C
→ -33, -28
- CO[C@H]1CN(C)C(=O)c2cc(NC(=O)c3cnccn3)ccc2OC[C@H](C)N(CC2CC2)C[C@@H]1C
→ 14, 9
- O=C(C[C@H]1CC[C@@H](NS(=O)(=O)c2ccc(F)cc2)[C@H](CO)O1)NCc1ccncn1
→ 9, 7

In another format: results already given
CCCNC(=O)N(C)C[C@@H]1Oc2ncc(-c3ccc(OC)cc3)cc2C(=O)N([C@@H](C)CO)C[C@@H]1C
  Vaccinia inh: 4	Vaccinia inh Venus: -2
CCC(=O)Nc1ccc2c(c1)OC[C@@H](C)N(Cc1ccncc1)C[C@@H](C)[C@H](OC)CN(C)C2=O
  Vaccinia inh: 8	Vaccinia inh Venus: 6
CCC(=O)Nc1ccc2c(c1)OC[C@@H](C)N(C(=O)CN1CCOCC1)C[C@@H](C)[C@H](OC)CN(C)C2=O
  Vaccinia inh: 2	Vaccinia inh Venus: 3
CCCC(=O)Nc1ccc2c(c1)OC[C@H](C)N(Cc1cccc(F)c1)C[C@H](C)[C@H](OC)CN(C)C2=O
  Vaccinia inh: -9	Vaccinia inh Venus: -5
